# Screening data: PubChem, several laboratories
# CSC inhib = cancer stem cell viability inhibitors, primary screen, luminescence | cancer stem cell-like cells viability | inhibition, % at 7.5 µM | 300,000 compounds, 1.1% hits | AID 2717, 2010;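 active = mean at 75% or more and at least half the replicates too; inconclusive = mean and replicates disagree; tested in HMLE shEcad cells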;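 note: 0% = median of negative and 100% = median of positive control wells; the first replicate is given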
# MT1-MMP act inh = blockers of MT1-MMP proenzyme processing, primary screen, HT1080 RFP-PRO-GFP cells, GFP/RFP fluorescence | GFP/RFP ratio fluorescence, overnight; percent of plate control window, DMSO zero | GFP/RFP ratio change, % at 20 µM | 360,000 compounds, 0.061% hits;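 active = GFP/RFP ratio change of at least 30% with cell ATP level not reduced by more than half and red fluorescence within 50% of control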; note: strong numbers were not always called active
#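 Compound: 20 µM single dose, 1% DMSO / System: HT1080 RFP-PRO-GFP cells / Controls: DMSO and RFP-L50D-GFP cell wells / Read-out basis: GFP/RFP fluorescence ratio / Schedule: overnight compound exposure at 37 °C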
# Rce1 inhib = yeast Rce1p protease inhibitors, primary screen, biochemical, fluorescence, cell-free homogeneous; 290,000 compounds, 0.27% hits; AID 2563, 2010; yeast membranes, quenched prenylated peptide cleavage fluorescence; calls only;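 active = fall in fluorescence gain of 50% or more versus controls, with final raw signal at or below 3038400; inconclusive = same 50% fall but final raw signal above 3038400; inactive = fall in fluorescence gain under 50%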;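 note: plate controls were neutral control wells for no effect and wells lacking membranes for full effect; tested at 10 µM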
# Target sequence (Q03530 whole entry, looked up): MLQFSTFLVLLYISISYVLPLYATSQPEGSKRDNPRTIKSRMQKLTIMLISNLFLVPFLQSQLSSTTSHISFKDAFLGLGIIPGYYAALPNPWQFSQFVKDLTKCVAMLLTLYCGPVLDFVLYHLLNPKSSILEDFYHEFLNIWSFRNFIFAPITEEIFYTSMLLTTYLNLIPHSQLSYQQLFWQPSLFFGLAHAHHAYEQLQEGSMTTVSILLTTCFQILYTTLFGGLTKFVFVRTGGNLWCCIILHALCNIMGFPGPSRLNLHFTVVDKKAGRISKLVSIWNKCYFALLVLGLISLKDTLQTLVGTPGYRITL
# HIV Env fusion = inhibitors of HIV-1 Env-driven cell-cell fusion, primary screen, HeLa-JRFL effector, CEM21 target cells, luciferase; inhibition, % at 12.3 µM; 360,000 compounds, 1.1% hits; AID 651610, 2012;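 active = mean replicate inhibition score of at least 50 and every replicate individually at or above 50; inconclusive = only one of the two criteria met; inactive = mean below 50 and not all replicates reaching 50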;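 note: 0% = plate neutral controls and 100% = maraviroc near 300 nM; one replicate is shown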
# eIF4H FP inh = human eIF4H binding inhibitors, primary screen, translation initiation inhibitor project, biochemical, uHTS, fluorescence polarization. Eukaryotic translation initiation factor 4H (Homo sapiens), Q15056. eIF4H fluorescence polarization binding assay. inhibition, % at 35 µM. 290,000 compounds, 0.94% hits. AID 2012, 2009;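 active = 50% or more with normal probe brightness, or confirmed in later tests; inconclusive = above 50% with abnormal brightness, or retests that disagree; inactive = below 50% or failed in later tests; about a fifth of its hits are not listed in these tables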;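 note: calls also rest on retests at 20 µM and on dose response follow-up; 0% = protein and probe with vehicle and 100% = probe without protein; strong numbers were not always called active; many hits fall short of the cut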
# Yeast UUG start = modulators of yeast start codon fidelity, primary screen, whole organism, S. cerevisiae, single point, plate reader; S. cerevisiae UUG-firefly luciferase reporter, luminescence/redox ratio; activity score, % at 18.7 µM; 350,000 compounds, 0.13% hits; AID 602363, 2012;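 active = replicate mean at a twofold rise or more, about +100% in these data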;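 note: firefly luciferase made from a UUG start codon reports start codon fidelity; reporter light over untreated wells divided by growth signal over untreated wells; some hits fall short of that in this replicate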
# PABP polyA inh = PABP poly(A) RNA binding inhibitors, primary screen, biochemical, fluorescence polarization, uHTS; Polyadenylate-binding protein 1 (Homo sapiens), P11940; inhibition, % at 35 µM; 290,000 compounds, 1% hits;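 active = 50% or more with normal probe brightness, or confirmed in later tests; inconclusive = above 50% with abnormal brightness, or retests that disagree; inactive = below 50% or failed in later tests; about a fifth of its hits are not listed in these tables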;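 note: calls also rest on retests at 20 µM and on dose response follow-up; controls were probe without protein and protein plus probe with vehicle; some compounds called inactive have numbers as strong as hits; many hits fall short of the cut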
# Target sequence (P11940 whole entry, looked up): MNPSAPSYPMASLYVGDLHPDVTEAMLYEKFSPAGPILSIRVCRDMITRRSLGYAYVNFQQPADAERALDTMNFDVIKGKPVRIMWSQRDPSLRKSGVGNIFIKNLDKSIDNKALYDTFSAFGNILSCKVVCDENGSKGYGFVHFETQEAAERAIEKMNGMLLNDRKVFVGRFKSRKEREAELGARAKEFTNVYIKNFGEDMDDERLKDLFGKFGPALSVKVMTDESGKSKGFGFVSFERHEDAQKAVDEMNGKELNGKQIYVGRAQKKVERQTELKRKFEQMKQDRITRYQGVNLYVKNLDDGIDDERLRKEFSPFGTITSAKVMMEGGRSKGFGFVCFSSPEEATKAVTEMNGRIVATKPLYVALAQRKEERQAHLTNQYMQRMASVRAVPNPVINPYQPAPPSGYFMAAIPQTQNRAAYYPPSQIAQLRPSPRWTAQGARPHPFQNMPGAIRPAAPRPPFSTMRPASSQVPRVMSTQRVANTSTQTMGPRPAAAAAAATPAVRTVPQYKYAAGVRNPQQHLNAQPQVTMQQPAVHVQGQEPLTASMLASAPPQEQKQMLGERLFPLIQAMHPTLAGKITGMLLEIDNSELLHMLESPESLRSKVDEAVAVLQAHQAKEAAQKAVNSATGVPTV
# eIF4H FP inh retest = further read-out of eIF4H FP inh, marked with its call; inhibition, %; compound at 20 µM; confirmation average;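 mean of two retest wells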
# PABP polyA inh retest = further read-out of PABP polyA inh, marked with its call; inhibition, %; compound at 20 µM; confirmation repeats;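 mean of two retest wells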
# MT1-MMP act inh RFP = also measured in MT1-MMP act inh; calls as there; RFP signal change, %; measured here: RFP expression control read;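 0 = vehicle wells; hits needed this value within 50% of zero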
# An asterisk follows results filed as active; i = inactive; ? = inconclusive; / = not tested or not shown; & = joins results of further samples.
SMILES,CSC inhib,MT1-MMP act inh,MT1-MMP act inh RFP,Rce1 inhib,HIV Env fusion,eIF4H FP inh,Yeast UUG start,PABP polyA inh,others
O=C(Nc1cccc(OC(=O)c2cccnc2)c1)c1cccnc1,/,3,2,i,7,-2,-22,4,
COC(=O)c1c(NC(=O)Nc2ccc(Cl)cc2)sc(C)c1C,1,-1,0,/,/,-4,-30,-3,
CCn1c(SCc2nc3ccccc3c(=O)[nH]2)nc2ccccc21,-13,0,1,i,-7,5,/,?,
COC(=O)[C@H]1C[C@H](O)CN1S(=O)(=O)c1ccc(Br)cc1F,/,1,6,/,-30,/,-16,/,
COc1ccccc1CNS(=O)(=O)c1c(C)noc1C,-4,2,6,i,-47,-2,-13,4,
Cc1ccccc1NN=Nc1nc2c([nH]1)c(=O)n(C)c(=O)n2C,-5,-2,1,/,15,22,/,-9,
CCNC(=O)C1(C)CCCN1C(=O)c1ccc(-c2ccccc2)cc1 (configuration not stated),/,-4,-5,/,-2,/,3,/,
CC1CCN(CCCn2c(SCC(=O)Nc3ccccc3Cl)nc3ccccc3c2=O)CC1,-5,-2,-2,i,-14,-3,/,-8,
Cn1nccc1C(=O)N1CCC(Cc2ccccc2)CC1,8,0,-1,i,13,8,2,0,
Cc1cc(=O)[nH]c(-n2nc(C)c(Oc3ccccc3O)c2C)n1,18,8,6,i,/,10,-30,-3,
CCn1cc([N+](=O)[O-])c(C(=O)Nc2ccn(Cc3ccccc3F)n2)n1,-12,5,2,i,-19,-3,5,-5,
COc1ccc(OC)c(C(=O)NC(CC(N)=O)c2ccc(N3CCC(N4CCCCC4)CC3)c([N+](=O)[O-])c2)c1 (configuration not stated),7,-2,6,i,0,0,23,4,
Cc1cc(S(=O)(=O)NCCCN2CCOCC2)c(Cl)cc1Cl,/,1,4,i,5,0,-9,-6,
C[C@@H]1CN([C@@H](C)CO)C(=O)c2cc(C#CCN(C)C)cnc2O[C@H]1CN(C)Cc1ccc2c(c1)OCO2,/,1,4,/,-5,/,13&-3&4,/,
Cc1cc(NC(=O)Nc2ccccc2[N+](=O)[O-])n(C)n1,-3,0,-2,i,-1,-6,-15,7,
CN(Cc1cnccn1)Cc1nc(Cc2ccccc2F)no1,-12,1,1,i,-15,-13,-7,-4,
COc1ccc(CNC(=O)C2CCN(c3nnc(N4CCCC4=O)s3)CC2)cc1,2,-1,5,i,5,90*,-17,52*,
O=C1OC[C@H]2CCCN2C(=O)[C@@H](CC(=O)N(CCO)Cc2ccccc2)C/C=C\CC[C@@H]1Cc1ccc(F)cc1,-12,-4,-2,/,-10,/,19,/,
Cc1ccc(N(CC(=O)NC2CCCC2)C(=O)CCC(=O)Nc2ccccn2)cc1,2,-1,2,/,0,9,0,17,
COc1ccc(N(CC(=O)NCCSc2ccccn2)S(=O)(=O)c2ccccc2)cc1OC,-5,-1,3,/,2,-8,7,-3,
COc1ccc(OC)c2[nH]c(=O)c(CCNC(C)=O)cc12,5,2,7,i,1,-4,-2,7,
COc1ccc(OCc2ccc(C(=O)NN)cc2)cc1,3,-2,1,i,?,-14,-7,3,
Clc1ccc(CN2CCN(c3ncnc4scc(-c5cccs5)c34)CC2)cc1,41,-6,-18,i,66*,2,-11,3,
O=c1nc(-c2ccccc2)c2cc(SC(F)F)ccc2[nH]1,11,-5,-6,i,14,-1,-11,-10,
CCOC(=O)C1(Cc2ccc(OC)cc2)CCN(C(=O)[C@@H]2CCCN2C(C)=O)CC1,-5,1,1,i,3,14,2,7,
COc1ccc(C2CC(c3ccc(Cl)cc3)=NN2C(=O)c2cccc([N+](=O)[O-])c2)cc1 (configuration not stated),4,-1,-6,i,-73,-5,/,-4,
CC(C)C(=O)Nc1ccc2c(c1)Cc1cc(NC(=O)C(C)C)ccc1-2,-2,3,1,i,-3,6,-9,19,
CCCC1C(C#N)=C(N)Oc2n[nH]c(C(C)(C)C)c21 (configuration not stated),13,4,7,i,/,-6,-16,-11,
CC(c1ccccc1)N1CC(C(=O)O)CC1=O (configuration not stated),-11,-8,1,i,-8,-7,/,11,
CC(=O)NCC(=O)N[C@@H](CC(=O)OCc1ccccc1)C(=O)OCc1ccccc1,8,1,1,i,-16,1,12,-6,
NC(=O)C1CCCN(C(=O)c2cccc(NC(=O)c3cccs3)c2)C1 (configuration not stated),/,-3,3,/,-8,/,-5,/,
O=C(Nc1ccc(Cl)cc1C(=O)N1CCOCC1)c1ccco1,-17,-1,3,i,/,5,-8,-5,
COc1cccc(OCCNC(=O)c2cc(OC)c(OC)c(OC)c2)c1,-2,-3,-1,i,9,-1,10,9,
O=[N+]([O-])c1ccccc1S(=O)(=O)N/C(=N/S(=O)(=O)c1ccccc1)c1ccccc1,-10,-2,1,/,/,/,-14,/,
COC(=O)C1=C(C)N(Cc2ccccc2)C(=S)N[C@H]1c1ccccc1,10,5,0,i,-11,4,-3,-3,
COc1ccc(-c2cc(C(=O)OCC(=O)NC3CC3)c3ccccc3n2)cc1,5,0,-1,/,/,/,-4,/,
CC1CCCN(CCS(=O)(=O)c2ccccc2)C1 (configuration not stated),-5,2,6,i,-11,/,-15,/,
Cc1nc(Cl)c(C(=O)NCc2ccccc2)c(C)c1Cl,3,0,1,i,11,-13,2,11,
CCCOP(=O)(c1ccc(N(C)C)cc1)C(O)c1ccc(Cl)cc1 (configuration not stated),-18,-2,0,i,18,6,-9,4,
S=C(NCCc1ccccc1)Nc1ccccn1,3,1,1,i,/,-16,-35,-2,

# Among those listed so far, these have a thiophene ring, fused or not:
SMILES,CSC inhib,MT1-MMP act inh,MT1-MMP act inh RFP,Rce1 inhib,HIV Env fusion,eIF4H FP inh,Yeast UUG start,PABP polyA inh,others
COC(=O)c1c(NC(=O)Nc2ccc(Cl)cc2)sc(C)c1C,1,-1,0,/,/,-4,-30,-3,
Clc1ccc(CN2CCN(c3ncnc4scc(-c5cccs5)c34)CC2)cc1,41,-6,-18,i,66*,2,-11,3,
NC(=O)C1CCCN(C(=O)c2cccc(NC(=O)c3cccs3)c2)C1 (configuration not stated),/,-3,3,/,-8,/,-5,/,

# Gathered by group: those above with two or more sulfur atoms.
SMILES,CSC inhib,MT1-MMP act inh,MT1-MMP act inh RFP,Rce1 inhib,HIV Env fusion,eIF4H FP inh,Yeast UUG start,PABP polyA inh,others
COc1ccc(N(CC(=O)NCCSc2ccccn2)S(=O)(=O)c2ccccc2)cc1OC,-5,-1,3,/,2,-8,7,-3,
Clc1ccc(CN2CCN(c3ncnc4scc(-c5cccs5)c34)CC2)cc1,41,-6,-18,i,66*,2,-11,3,
O=[N+]([O-])c1ccccc1S(=O)(=O)N/C(=N/S(=O)(=O)c1ccccc1)c1ccccc1,-10,-2,1,/,/,/,-14,/,

# Additional compounds follow:
SMILES,CSC inhib,MT1-MMP act inh,MT1-MMP act inh RFP,Rce1 inhib,HIV Env fusion,eIF4H FP inh,Yeast UUG start,PABP polyA inh,others
CN(c1cccc(NC(=O)CN(c2cccc(F)c2)S(C)(=O)=O)c1)S(C)(=O)=O,-3,-1,3,i,-5,6,6,65,eIF4H FP inh retest=42;PABP polyA inh retest=16
Cc1ccc(S(=O)(=O)N2CCCC(C(=O)NCCc3ccccc3)C2)cc1 (configuration not stated),-1,-3,-5,i,12,-2,-10,5,
COc1ccccc1N1CCN(C(=O)CSc2nc3ncnc(N)c3[nH]2)CC1,/,3,5,i,-16,0,-21,12,
Cc1ccc2c(c1)N(C(=O)CCC(=O)NCc1cccc(F)c1)CCO2,-11,-5,2,i,0,-1,-3,-4,
C/C(=N\NC(=O)c1nnn(-c2nonc2N)c1CSc1ccc(Cl)cc1)c1cccnc1,-3,5,1,i,0,-19,-9,15,
Cc1cc(C(=O)O)ccc1-n1c(C)cc(/C=C(/C#N)C(=O)Nc2ccccc2)c1C,-2,0,4,i,8,63*,/,57*,eIF4H FP inh retest=106*;PABP polyA inh retest=88*
COc1ccc(C(=O)OCC(=O)c2c[nH]c3ccccc23)cc1OC,/,0,1,/,-8,/,-6,/,
COC(=O)Nc1ccc(Cn2cc(C(F)(F)F)ccc2=O)cc1,3,2,2,i,-11,-5,/,6,
CC1C(=O)C(C)(C)C(=O)OC1c1ccccc1 (configuration not stated),-8,3,-2,i,5,2,-19,0,
COc1ccc(OCc2cc(C(=O)N3C[C@@H](C)O[C@@H](C)C3)no2)c(Cl)c1,1,0,-1,i,/,-2,-13,8,

# Filtered by structure: the compounds so far with a nitro group on carbon (5)
SMILES,CSC inhib,MT1-MMP act inh,MT1-MMP act inh RFP,Rce1 inhib,HIV Env fusion,eIF4H FP inh,Yeast UUG start,PABP polyA inh,others
CCn1cc([N+](=O)[O-])c(C(=O)Nc2ccn(Cc3ccccc3F)n2)n1,-12,5,2,i,-19,-3,5,-5,
COc1ccc(OC)c(C(=O)NC(CC(N)=O)c2ccc(N3CCC(N4CCCCC4)CC3)c([N+](=O)[O-])c2)c1 (configuration not stated),7,-2,6,i,0,0,23,4,
Cc1cc(NC(=O)Nc2ccccc2[N+](=O)[O-])n(C)n1,-3,0,-2,i,-1,-6,-15,7,
COc1ccc(C2CC(c3ccc(Cl)cc3)=NN2C(=O)c2cccc([N+](=O)[O-])c2)cc1 (configuration not stated),4,-1,-6,i,-73,-5,/,-4,
O=[N+]([O-])c1ccccc1S(=O)(=O)N/C(=N/S(=O)(=O)c1ccccc1)c1ccccc1,-10,-2,1,/,/,/,-14,/,

# Later entries.
SMILES,CSC inhib,MT1-MMP act inh,MT1-MMP act inh RFP,Rce1 inhib,HIV Env fusion,eIF4H FP inh,Yeast UUG start,PABP polyA inh,others
COC(=O)c1ccc(C23CC4(C2)[C@H](CN(Cc2cccnc2)[C@@H]4c2ccccc2)C3c2ccc(C(F)(F)F)cc2)cc1 (some centres not stated),10,/,/,i,3,-8,/,-7,
CCCCN1C(=O)CC(C(=O)OCC)=C1C,/,-1,-2,i,1,-6,-6,6,
Cc1nc2sccn2c(=O)c1S(=O)(=O)Nc1cccc(Cl)c1C,-12,-1,-3,i,-24,-9,-24,0,
COc1ccccc1OCC(=O)Nc1nc(-c2ccc(S(=O)(=O)N3CCOCC3)cc2)cs1,-4,2,-8,i,/,/,-6,/,
CCOCCCNC(=O)c1ccc(CS(=O)(=O)c2cccc(C(F)(F)F)c2)o1,-15,-1,-1,i,7,-2,-1,-7,
COC(=O)COc1cc(Br)c(/C=C2/SC(=O)N(CC(=O)N3CCCC3)C2=O)cc1OC,-7,-3,-3,i,-17,-4,/,11,
COc1ccccc1C(=O)NCc1n[nH]c(=S)n1Cc1ccccc1,-9,2,2,i,25,2,/,-3,
O=C(O)c1cccc2c1C(=O)N(Cc1ccncc1)C2,-9,10,4,i,-114,6,-7,-2,
CCOc1ccc(CCNC(=O)COC(=O)/C=C/c2ccc(C)o2)cc1OCC,2,0,0,i,-4,8,-1,1,
CCOC(=O)c1sc2nc3n(c(=O)c2c1C)CCC3,-7,0,0,i,-40,6,-53,4,
CC(Oc1cccc(Cl)c1)C(=O)Nc1nc(-c2ccccn2)cs1 (configuration not stated),71,1,0,i,25,/,-58,/,
Cc1ccc(S(=O)(=O)N2CCC(C)CC2)cc1C(=O)NCc1ccccn1,-1,3,-3,i,6,-2,-16,-4,

# Only part of the results is shown; rates above refer to the full screens.
